RE007 growth inh: less growth of the S. pombe RE007 Vpr strain | S. pombe RE007 Vpr strain, BacTiter-Glo ATP luminescence, 24 h; control for the full effect not named in the record | Potency, µM (highest dose often 92.2 µM), without a hit: at the top dose activity change, negative = less growth | 0.21% of 360,000 active; active = well fitted falling curve with a large enough effect; inconclusive = small, poorly fitted or top-dose-only effect; inactive = no such curve, though single readings can be large or run the other way;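 further: nearly all actives have a fitted effect of over 50% in size; the assay follows cell death caused by Vpr and the record does not say whether a fall means rescue or toxicity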
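Fission yeast strain RE007, carrying one chromosomally integrated HIV-1 vpr copy, was seeded at OD 0.01 in PMG+AL medium with 23 nL pinned compound. After 24 h at 30 °C and 99% humidity, viability was read by BacTiter-Glo luminescence.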
2A StopGo: lowers the luciferase signal of an FMDV 2A StopGo reporter; human cells with a luciferase reporter of 2A StopGo recoding; control for the full effect not named in the record; Potency, µM (top dose mostly 57.9 µM), for inactives: at the highest dose signal change, negative = less light; 1.2% of 410,000 active; active = well fitted falling curve with a large enough effect; inconclusive = small, poorly fitted or top-dose-only effect; inactive = no such curve, though single readings can be large or run the other way; tested in HEK293T cells; further: nearly all actives have a fitted effect of over 45% in size; luciferase light after 4 h
Numbers without * were called inactive; ? = inconclusive; [ ] = remark or other dose. On the % scale 0 is the no-effect control and ±100 the full control effect; potency means the concentration at half of the fitted maximal effect. The list is partial; count on the stated rates, not on these rows.

SMILES | RE007 growth inh | 2A StopGo
C[C@@H]1CCCCO[C@@H](CN(C)Cc2ccc3c(c2)OCO3)[C@@H](C)CN([C@H](C)CO)C(=O)c2cc(NS(=O)(=O)c3ccccc3)ccc2O1 | 28.3% | ?
CCOC(=O)C1=C(C)N(CCCC(=O)O)C(=O)NC1c1cccs1 (configuration not stated) | 0.8% | -20.5%
Cc1c(NC(=O)COC(=O)c2ccccc2O)c(=O)n(-c2ccccc2)n1C | 1.9% | -8.2%
COC(C[C@@H]1O[C@H]1C(=O)COCc1ccccc1)OC | 2.4% | -11.6%
O=C1NC[C@@H](CCCCN2C[C@H](Cc3ccccc3)N(CCC3CCCCC3)C(=O)C2=O)N(CCc2ccc(O)cc2)C1=O | 0.5% | 2.3%
CCc1cc2c(cc1-c1csc(C/C(N)=N/O)n1)C(C)(C)CCC2(C)C | ? | ?
C=Cn1cc(CNC[C@H]2O[C@@H](n3ccc(N)nc3=O)[C@H](O)[C@@H]2O)c(C)n1 | 2.8% | -13.9%
CCOC1=C2[C@H](c3ccccc3)N(S(=O)(=O)c3ccc(C)cc3)C(C(C)(C)C)[C@H]2C(C#N)(C#N)C(C#N)(C#N)C1 (some centres not stated) | -9.0% | ?
OC[C@@H]1CN(Cc2ccccc2)C[C@H](n2cnc3c(NCc4ccncc4)ncnc32)O1 | 4.9%[18.4 µM] | -13.9%
CCc1nc2ccc(C(=O)Nc3cccc(NS(C)(=O)=O)c3)cn2c1N(C)C(=O)c1cccc(OC)c1 | 0.0% | -14.2%
CC(Sc1ccc(S(=O)(=O)N2CCN(C)CC2)cn1)C(=O)Nc1cccc(Cl)c1Cl (configuration not stated) | 2.5% | ?
CC[N+]1(C)[C@@H]2CC[C@H]1CC(OC(=O)[C@H]1CCC(C(=O)OC3C[C@H]4CC[C@@H](C3)[N+]4(C)CC)(c3ccccc3)c3ccccc31)C2 (some centres not stated) | -15.7%[18.4 µM] | -24.5%
CCN(C)C1CN(Cc2cn(Cc3ccc(OC)cc3)nn2)S(=O)(=O)C1 (configuration not stated) | 11.3% | -16.3%
C#CCOC(=O)CCCN1C(=O)c2cccc3cccc(c23)C1=O | -8.7% | 17.9%
C[C@@H]1CN([C@H](C)CO)C(=O)CCCn2nncc2CO[C@H]1CN(C)Cc1ccncc1 | -2.8% | -19.3%
COc1ccccc1N1CCN(Cc2cc(=O)oc3ccccc23)CC1 | 0.4% | 0.0%
CC1(C(=O)NCc2ccccc2)CSCC(=O)N1Cc1cccc(C(F)(F)F)c1 (configuration not stated) | 0.0% | -17.8%
CCN1C[C@@H]2[C@@H]3C(=O)N(C)C(=O)[C@@H]3[C@](Cc3ccccc3)(C1=O)N2C(=O)c1ccc(Cl)c(Cl)c1 | 5.7% | -12.0%
CC(C)Oc1ccc(S(=O)(=O)N2CCOCC2)cc1NC(=O)CSC(=S)N1CCCC1 | -6.8% | -17.6%
COC(=O)C1(C(=O)OC)c2ccccc2N(S(=O)(=O)c2ccc(C)cc2)C1CC(=O)c1ccccc1 (configuration not stated) | 4.9% | -8.4%
COC(=O)C1=C(c2ccc(S(C)(=O)=O)cc2)C[C@@H]2CC[C@H]1N2C(=O)N1CCCCC1 | 0.5% | -1.0%
C[C@@H]1CCCN1[C@H]1CS(=O)(=O)N[C@@H]1COCc1ccccc1 | -1.5% | -2.9%
Fc1cccc(F)c1-c1nc2c(s1)CCc1onc(-c3ccc(Br)cc3)c1-2 | -12.4% | 4.6%
Cc1cnc(N)nc1-c1ccccc1 | -22.8% | -10.7%
COCc1cccc(-c2csc(C(NC(C)=O)c3cccc(OC)c3)n2)c1 (configuration not stated) | 4.4% | 1.5%
Cc1ccc(S(=O)(=O)Nc2ccc(Nc3nccn4c(-c5ccccc5Oc5ccccc5)cnc34)cc2)cc1 | 0.6% | 0.0%
COc1cc(C2c3cc(O)c(OC)cc3CC3C(=O)OCC32)ccc1O (configuration not stated) | 4.3% | -18.6%
CC1=CC(=NOS(=O)(=O)c2ccc(C)cc2)CC(C)(C)C1 | -8.1% | -27.0%
CCCc1c(-c2ccc(Cl)cc2)ncn1Cc1cccc(-c2ccccc2)c1 | ? | ?
COCCN1C(=O)c2ccccc2C1c1nc2ccccc2[nH]1 (configuration not stated) | -2.1% | -9.0%
CC(C)(C)C(c1nc2ccccc2[nH]1)n1c(-c2ccco2)nc2ccccc21 (configuration not stated) | 0.0% | -14.5%
COc1ccc(C(=O)NCC(c2ccco2)N2CCc3ccccc3C2)c(OC)c1 (configuration not stated) | -11.9% | -12.3%
N#Cc1cnn2c(=O)[nH]cnc12 | -6.6% | -2.5%
CN(C)CCNC(=O)c1ccc2nc([C@@H]3O[C@H](CO)[C@H](O)[C@H](O)[C@H]3O)[nH]c2c1 | 7.1% | -17.6%
OCC[C@@H]1NCc2cc(CO)cc(-c3ccccc3)c21 | -9.6% | -14.4%
CCC(=O)Oc1ccc(NC(=O)c2ccc(S(=O)(=O)N3CCCC3)cc2)cc1 | 2.7% | ?
CCN(C(=S)Nc1cccc2ccccc12)c1ccccc1 | -9.8% | -3.2%
CC(C)(C)S(=O)N1Cc2cn(Cc3ccccc3)c(=O)cc2[C@H]1CCO (some centres not stated) | 7.8% | -2.5%
COc1ccc(OC)c(NC(=O)Nc2nnc(COCCO)s2)c1 | 0.3% | -16.6%
O=C1OCC/C1=C1/NCCNC1=O | 2.1% | -7.4%
COC(=O)[C@]12CCCCC=C1N(Cc1cccc3ccccc13)C(=O)[C@H](CC(=O)N1CCCC1)C2 | 6.3% | ?
C[C@@H]1CCCCO[C@@H](CN(C)S(=O)(=O)c2ccccc2)[C@@H](C)CN([C@H](C)CO)C(=O)c2cc(N(C)C)ccc2O1 | 6.7% | 4.9%
O=C(c1ccc(CSc2ccc(Cl)cc2)o1)N1CCOCC1 | -17.6% | 20.4%
CN(C)Cc1c[nH]c2nccnc12 | 1.4% | -10.4%
COC(=O)N1CCCCC1c1cc(C(=O)Nc2ccccc2Cl)no1 (configuration not stated) | 2.3% | -17.9%
NS(=O)(=O)c1ccc(CCNC(=O)c2cc(S(=O)(=O)N3CCCCC3)ccc2Cl)cc1 | -11.5% | -24.2%
Cc1cc(C(C)(C)C)ccc1Oc1cccc2c1S(=O)(=O)N(C1CCCC1)CC(COCc1ccccc1)O2 (configuration not stated) | -2.1% | -18.1%
O=C(NCc1ccccc1)C1(C(F)(F)F)CC(CCCO)CCCO1 (configuration not stated) | -7.0% | -11.2%
O=C(C(=O)N1CCN(C(=O)OCc2ccccc2)CC1)c1cccnc1 | -12.8% | -11.7%
CCOC1=C2[C@@H](CN(S(=O)(=O)c3ccc(C)cc3)[C@H]2c2ccccc2F)[C@H]2C(=O)N(Cc3ccccc3)C(=O)[C@H]2C1 | 4.8% | 62.3%[activator]
COCCNc1nc(Oc2cncc(Cl)c2)c2sccc2n1 | 7.2%[18.4 µM] | 12.1%
CCNC(=O)C1CCCN(C(=O)c2cc(F)cc(F)c2)CC1 (configuration not stated) | -7.0%[18.4 µM] | -14.1%
NC(Cc1ccc(F)cc1)c1csc(NC(=O)NC(c2ccccc2)c2ccccc2)n1 (configuration not stated) | 3.3%[18.4 µM] | ?
CCCCCCCCNS(=O)(=O)CCNCc1ccccc1 | -10.1% | -18.2%
COc1ccc(OC)c(NC(=O)Nc2nc(C(C)N)cs2)c1 (configuration not stated) | 6.2%[18.4 µM] | -3.4%
Cc1ccc(S(=O)(=O)NC(=O)C2(C)CCN2C(=O)CCc2ccc(Cl)cc2Cl)cc1 (configuration not stated) | -2.4% | -0.9%
FC(F)(F)c1cc(CCN2CCNC[C@@H]2Cc2ccccc2)cc(C(F)(F)F)c1 | 19.1% | -20.9%
COC(=O)[C@]12CCCCC=C1N(Cc1ccco1)C(=O)[C@H](CC(=O)NCc1ccc(OC)c(OC)c1)C2 | -0.9% | -18.4%
O=C1C(=Cc2cccc(Cl)c2)Cc2ccccc21 | 6.3%[18.4 µM] | 41.9%[activator]
COCCNc1nc(NCc2ccc(NC(C)=O)cc2)c2sccc2n1 | -8.1% | -14.6%

Continued.
SMILES | RE007 growth inh | 2A StopGo
CC(=O)Nc1ccc(OCc2cn(CC(=O)c3ccc(O)cc3)nn2)cc1 | -6.5% | 0.0%
COc1ccc(Cc2c(-c3ccc(OC)c(OC)c3)nc3c(C)cc(Br)cn23)c(C)c1 | ? | ?
CCc1nc2c(OCc3ccc(Cl)cc3)cccn2c1N(C)C(=O)c1ccco1 | -29.3%[18.4 µM] | 28.2µM*
CC1(C(=O)NC2CCCC2)CCC(=O)N1CCCn1ccnc1 (configuration not stated) | -2.7% | -8.7%
Cc1ccccc1OCc1nnc(SC(C)C(=O)O)n1-c1ccccc1 (configuration not stated) | -9.5% | -15.9%
CC(=NOC(=O)C1CCCCC1)c1nccs1 | -10.3% | -21.1%
O=C(O)CCCC[C@@H]1SC[C@@H]2NC(=O)N[C@@H]21 | 14.3% | -19.7%
CN(CCC#N)c1ccc(C=C(C#N)c2cccc(C(F)(F)F)c2)cc1 | -5.8% | -22.5%
CSc1ccc(CN2CCC2(C)C(=O)NC2CCN(Cc3ccccc3)CC2)cc1 (configuration not stated) | 2.4% | -25.9%
CC1(C(=O)NS(=O)(=O)C2CC2)CCN(C(=O)CSc2ccccc2)C1 (configuration not stated) | 8.9% | -4.9%
CC1=C(C(=O)N(C)C)CC(CC(=O)NCC2CCCCC2)C(=O)N1CCCN1CCCC1=O (configuration not stated) | -5.1% | -22.9%
C=C1CCN([C@@H](Cc2ccccc2)C(=O)Nc2ccc(OC)cc2)S(=O)(=O)c2ccccc21 | -14.5% | 17.4%
O=C(NCc1cccs1)c1ccc2sc(C3=C[C@@H](O)[C@@H](O)[C@@H](CO)O3)nc2c1 | 14.7% | 0.7%
COc1ccc(C2CCc3cc4c(cc3C2=NO)OCO4)cc1OC (configuration not stated) | 1.9% | ?
CCc1nc2c(OCC(=O)c3ccc(F)cc3)cccn2c1N(C)C(=O)c1cccs1 | -12.4% | -15.5%
COC(=O)[C@@]12C[C@@H](CC(=O)N3CCOCC3)C(=O)N(Cc3cccc4ccccc34)C1=CCC(C)(C)C2 | 0.0% | -11.9%
CC(=O)c1ccc(S(=O)(=O)N2CCN(C(=O)c3cccc(S(=O)(=O)N4CC(C)OC(C)C4)c3)CC2)cc1 (configuration not stated) | -20.8% | -23.8%
COc1ccc(Cl)cc1-c1cc(C(=O)NCc2ccc(F)cc2)[nH]n1 | 5.0% | -7.3%
FC(F)(F)c1ccccc1Cc1c(-c2cccc(Cl)c2)nc2c3ccccc3ccn12 | -20.7% | -17.6%
COC(=O)[C@@]1(C(C)C)N=C(c2cc(OC)c(OC)c(OC)c2)[C@]2(O1)C(=O)Nc1ccc(F)cc12 | 2.6% | -15.5%
C[C@@H]1CN([C@H](C)CO)C(=O)CCCn2nncc2CO[C@H]1CN(C)Cc1cccc(C(F)(F)F)c1 | 14.1% | -0.6%
COc1ccc(-c2ccc(C(=O)N3CCOCC3)c3occc23)c(C)c1 | 35.3% | ?
Cc1cccc(C)c1NC(=O)C(CCc1ccccc1)N1CCN(C)CC1 (configuration not stated) | -2.3% | -7.5%
O=C1c2cccc(N3CCNCC3)c2C2CCCCN12 (configuration not stated) | -15.4% | -9.8%
CCN(c1ccc(NC(=O)COC(=O)C2CCN(c3ccc(C(F)(F)F)cn3)CC2)cc1)C(C)C | 4.0% | -12.3%
Cc1ccc(N2CC(C(=O)Nc3cccc(S(=O)(=O)N4CCOCC4)c3)CC2=O)cc1 (configuration not stated) | 4.6% | -15.3%
CCOc1ccc(OCCC(=O)N(CC(C)C)c2c(N)n(Cc3ccccc3)c(=O)[nH]c2=O)cc1 | 4.8% | -17.1%
O=C1C(=Cc2cccc(F)c2)Cc2ccccc21 | -8.0%[18.4 µM] | 44.5%[activator]
CSc1ncnc2c1ncn2CCCN1CCN(c2ccccn2)CC1 | -0.4% | -21.5%

Filtered by structure: the entries above with a Cl atom
SMILES | RE007 growth inh | 2A StopGo
CC(Sc1ccc(S(=O)(=O)N2CCN(C)CC2)cn1)C(=O)Nc1cccc(Cl)c1Cl (configuration not stated) | 2.5% | ?
CCN1C[C@@H]2[C@@H]3C(=O)N(C)C(=O)[C@@H]3[C@](Cc3ccccc3)(C1=O)N2C(=O)c1ccc(Cl)c(Cl)c1 | 5.7% | -12.0%
CCCc1c(-c2ccc(Cl)cc2)ncn1Cc1cccc(-c2ccccc2)c1 | ? | ?
O=C(c1ccc(CSc2ccc(Cl)cc2)o1)N1CCOCC1 | -17.6% | 20.4%
COC(=O)N1CCCCC1c1cc(C(=O)Nc2ccccc2Cl)no1 (configuration not stated) | 2.3% | -17.9%
NS(=O)(=O)c1ccc(CCNC(=O)c2cc(S(=O)(=O)N3CCCCC3)ccc2Cl)cc1 | -11.5% | -24.2%
COCCNc1nc(Oc2cncc(Cl)c2)c2sccc2n1 | 7.2%[18.4 µM] | 12.1%
Cc1ccc(S(=O)(=O)NC(=O)C2(C)CCN2C(=O)CCc2ccc(Cl)cc2Cl)cc1 (configuration not stated) | -2.4% | -0.9%
O=C1C(=Cc2cccc(Cl)c2)Cc2ccccc21 | 6.3%[18.4 µM] | 41.9%[activator]
CCc1nc2c(OCc3ccc(Cl)cc3)cccn2c1N(C)C(=O)c1ccco1 | -29.3%[18.4 µM] | 28.2µM*
COc1ccc(Cl)cc1-c1cc(C(=O)NCc2ccc(F)cc2)[nH]n1 | 5.0% | -7.3%
FC(F)(F)c1ccccc1Cc1c(-c2cccc(Cl)c2)nc2c3ccccc3ccn12 | -20.7% | -17.6%
